Screening data deposited in PubChem BioAssay by National Center for Advancing Translational Sciences (NCATS).
gsp antag: qHTS for Antagonists of gsp, the Etiologic Mutation Responsible for Fibrous Dysplasia/McCune-Albright Syndrome: qHTS; Potency, µM (doses to about 76.9 µM), without a hit: at the top dose activity change, negative = inhibition, most hits filed as inhibitors; gsp-mutant cells, cAMP HTRF, 30 min; control for the full effect not named in the record; actives 0.4% (n = 340,000); active = falling curve of any shape with a large fitted effect; inconclusive = falling curve, mostly with a smaller effect; inactive = flat or rising curve; cell line not stated here;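 also: intracellular cAMP measured with PDE inhibitor Ro 20-1724 present during compound exposure; potency is read from the fitted curve at half-maximal effect; % is scaled to controls: 0 for no effect and ±100 for the full control effect; nearly all actives have a fitted effect of over 65% in size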
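HTRF cAMP measurement after 30 min RT detection following 30 min, 37C compound treatment alongside […] (added as 300 uM solution) in G418-selected cells seeded at 2000/well and grown 16–24 h.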
D2 ag: Beta-Arrestin HTS for Positive Allosteric Modulators of the Human D2 Dopamine Receptor: Agonists; actives 0.084% (n = 360,000); activation, % (no concentration beside the values); DiscoveRx PathHunter D2 beta-arrestin, luminescence, 90 min; 100% = 57 uM dopamine signal; D(2) dopamine receptor (Homo sapiens), P14416; in the data active = activation above about 40%; inconclusive = about 15% to 40%; inactive = below about 15%; also: compound concentration not given in the record; the text of the record calls up to 30% inactive
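DiscoveRx PathHunter D2 beta-arrestin cells (2,100/well) attached overnight, then compound-stimulated 90 min at 37 C in HBSS/10 mM HEPES/0.1% Tween-20 buffer; beta-galactosidase complementation read by luminescence after 1 h at ambient temperature. Dopamine 57 uM final (EC100) as control.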
Six1-Eya2 inh: qHTS Assay for Inhibitors of the Six1/Eya2 Interaction | activity change, % (no concentration beside the values) | AlphaScreen GST-Six1/His-Eya2 binding, biochemical; active compounds read low; control for the full effect not named in the record | Homeobox protein SIX1 (Homo sapiens) + Protein phosphatase EYA2 (Homo sapiens), … | actives 0.56% (n = 360,000) | AID 651725, 2012; in the data active = activity change below about -65%; inconclusive = about -30% to -65%; inactive = above about -30%; also: % is scaled to controls: 0 for no effect and ±100 for the full control effect
Target sequence (O00167 whole entry, looked up): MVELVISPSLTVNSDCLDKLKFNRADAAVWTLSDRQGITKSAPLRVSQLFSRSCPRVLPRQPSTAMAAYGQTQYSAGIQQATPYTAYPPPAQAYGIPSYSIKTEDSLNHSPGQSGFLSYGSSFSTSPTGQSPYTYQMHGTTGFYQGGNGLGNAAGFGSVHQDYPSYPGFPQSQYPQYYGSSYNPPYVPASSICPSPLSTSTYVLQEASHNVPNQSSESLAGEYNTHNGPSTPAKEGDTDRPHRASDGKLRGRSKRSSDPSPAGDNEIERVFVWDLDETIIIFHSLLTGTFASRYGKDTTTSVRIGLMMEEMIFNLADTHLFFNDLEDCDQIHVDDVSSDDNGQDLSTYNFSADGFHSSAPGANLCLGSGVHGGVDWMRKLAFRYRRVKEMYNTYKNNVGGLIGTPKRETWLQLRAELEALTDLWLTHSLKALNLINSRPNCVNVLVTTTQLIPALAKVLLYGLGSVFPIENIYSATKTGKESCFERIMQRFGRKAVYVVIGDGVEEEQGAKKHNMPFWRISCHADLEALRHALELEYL
Target sequence (Q15475 whole entry, looked up): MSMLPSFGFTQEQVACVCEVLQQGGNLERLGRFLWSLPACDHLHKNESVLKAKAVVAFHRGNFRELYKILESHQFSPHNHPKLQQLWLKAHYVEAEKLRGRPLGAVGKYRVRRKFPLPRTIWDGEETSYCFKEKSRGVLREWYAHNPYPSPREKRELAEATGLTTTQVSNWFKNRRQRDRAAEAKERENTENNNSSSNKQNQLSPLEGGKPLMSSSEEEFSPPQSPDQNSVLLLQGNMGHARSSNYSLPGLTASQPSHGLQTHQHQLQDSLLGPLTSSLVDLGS
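Homogeneous AlphaScreen proximity assay pairing GST-Six1 with His-tagged Eya2 (added as 5X mix: 250 nM and 500 nM) in 50 mM Tris pH 8.0, 300 mM NaCl, 1 mM TCEP. Glutathione donor and nickel acceptor beads; 1 h, 37 °C, dark.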
CtBP-E1A blk: qHTS Assay for Inhibitors of the CtBP/E1A Interaction; AlphaScreen GST-E1A/His-CtBP binding, 1536-well; active compounds read low; control for the full effect not named in the record; activity change, % (concentration not given with the values); actives 0.49% (n = 340,000); AID 651724, 2012; in the data active means activity change below about -65%; inconclusive means about -30% to -65%; inactive means above about -30%; also: % is scaled to controls: 0 for no effect and ±100 for the full control effect
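Protein mix (5X: 125 nM each GST-E1A, His-CtBP) was incubated with pinned compound 2 h at 37 deg C in dark, in 50 mM Tris pH 8.0 buffer with 300 mM NaCl. Glutathione donor and nickel acceptor beads followed; AlphaScreen signal read after 1 h.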
gsp agonist: qHTS for Agonist of gsp, the Etiologic Mutation Responsible for Fibrous Dysplasia/McCune-Albright Syndrome: qHTS; gsp mutant cells, cAMP HTRF, 30 min; control for the full effect not named in the record; actives 0.13% (n = 340,000); Potency, µM (highest dose often 76.9 µM), for inactives: at the highest dose activation (cAMP increase), usual class: activators; active = well fitted activation curve with a large enough effect; inconclusive = small, poorly fitted or top-dose-only effect, or another doubt; inactive = no such curve, though single readings can be large or run the other way; cell line not stated here;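 also: phosphodiesterase inhibitor Ro 20-1724 added with compounds to block cAMP breakdown; potency is read from the fitted curve at half-maximal effect; nearly all actives have a fitted effect of over 60% in size; about a fifth of the inactives were tested at one dose only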
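Cells in DMEM/10% FBS with G418 were pretreated with compounds in DMSO plus […] (300 uM stock) for 30 min at 37C. cAMP was measured by HTRF (cAMP-d2 plus anti-cAMP antibody-K) after 30 min at room temperature.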
D2 PAM: Beta-Arrestin HTS for Positive Allosteric Modulators of the Human D2 Dopamine Receptor: Potentiators. DiscoveRx D2 beta-arrestin cells, luminescence, 90 min; 100% = 57 uM dopamine signal. potentiation, % (test concentration not listed). actives 0.23% (n = 360,000). D(2) dopamine receptor (Homo sapiens), P14416; active = potentiation of 50% or more; inconclusive = 30% to 50%; inactive = 30% or less;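 also: compound concentration not given in the record; tested on top of an EC20 dose of dopamine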
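D2 cells co-treated with compound plus 50 nM dopamine (EC20) for 90 min at 37 deg C to detect potentiation. Beta-arrestin recruitment was read as enzyme-fragment luminescence after 1 h at ambient temperature. Full response was set by 57 uM dopamine.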
An asterisk follows results filed as active; ? = inconclusive; nt = not tested or not shown; [ ] = remark or other dose.

smiles	gsp antag	D2 ag	Six1-Eya2 inh	CtBP-E1A blk	gsp agonist	D2 PAM
CC(C)C[C@@H](CN)NC(=O)c1nc[nH]c1C(=O)N[C@@H](Cc1ccccc1)C(=O)CNC[C@H](C)NC(=O)c1nc[nH]c1C(=O)N[C@@H](C)C(=O)O	8%	-4.2	-10	-8	nt	-1
CC(C)OP(=O)(c1ccc(N(C)C)cc1)C(O)c1c(Cl)cccc1Cl (stereo not drawn)	7%	-2.8	-5	3	-16%	-12
Cc1cccc(NC(=O)CSc2nc(NS(=O)(=O)c3ccccc3)cc(=O)[nH]2)c1	3%	-0.1	-14	1	-29%	-3
Cn1c(N)nc2ccccc2c1=O	18%	-3.8	5	-2	0%[15.4 µM]	-8
CC(C)(C)c1ccc(C(=O)N2CCN(S(=O)(=O)c3ccc(Br)s3)CC2)cc1	-25%	-1.1	-1	nt	-11%	0
N#Cc1cc(-c2ccc(Cl)cc2)cn(Cc2c(Cl)cccc2Cl)c1=O	4%	-3.0	4	6	45%	-9
O=S1(=O)CC(NCc2ccccc2)C(Nc2ccccc2)C1 (stereo not drawn)	4%	-0.7	4	9	-2%	5
CC(C)(C)c1ccc(-c2nc(N)nc(N)n2)cc1	-3%	-2.9	-8	nt	-14%	0
COc1ccc(OC)c(N2C(=O)C(Cl)=C(N3CCOCC3)C2=O)c1	-1%	4.0	-5	-24	-36%[inhibitor]	12
COc1ccc(S(=O)(=O)N2CCC3CC2c2cc(N4CCOCC4)ccc23)cc1 (stereo not drawn)	-8%	-1.6	?	-12	nt	-5
CN(C)CCCNC(=O)C(=O)Nc1cc2c3c(c1)CCC(=O)N3CCC2	24%	0.4	1	-3	24%	-8
CSCCC(NC(=O)c1ccc(Cl)cc1)C(=O)NC(C)(C)C (stereo not drawn)	16%	-1.9	-8	-10	-27%	-10
Cc1c(C(=O)NNC(=S)NCc2ccc(Cl)cc2)oc2ccccc12	-5%	-6.7	-13	-3	-11%	-5
O=C(CCNC(=O)c1ccc(Cl)cc1)Nc1ccncc1	6%	-2.8	-1	1	9%	6
CC(C)C[C@H](NC(=O)c1[nH]cnc1C(=O)N[C@@H](C)C(=O)OCc1ccccc1)C(=O)OCc1ccccc1	-13%	-6.3	-5	-3	-10%	-8
COc1ccc(-c2noc(C3CCCN(S(=O)(=O)c4cccc(Cl)c4)C3)n2)cc1OC (stereo not drawn)	-17%	-3.2	-1	2	-35%[inhibitor]	-3
COCCNC(=O)c1onc(CSc2ccc(Cl)cc2)c1C(=O)O	?	4.1	3	5	nt	-1
Cc1ccc(OCc2ccc(C(=O)Nc3c(C)nn(Cc4c(F)c(F)c(F)c(F)c4F)c3C)o2)c([N+](=O)[O-])c1	-17%	-0.5	-17	-16	9%	-6
CCOC(=O)C1=C(O)/C(=C\c2ccc(OC)c(OC)c2)N=C1C	-23%	-1.8	-2	-9	-64%[inhibitor]	-1
O=C(Nc1ccc(S(=O)(=O)NCC2CCCO2)cc1)c1ccc(F)cc1 (stereo not drawn)	nt	3.7	-3	-11	-7%[15.4 µM]	-17
CC(=O)c1cccc(S(=O)(=O)Nc2cc(C(F)(F)F)ccc2N2CCOCC2)c1	3%	0.3	10	-18	?	-4
COc1cccc(NC(=O)c2oc3ccccc3c2NC(=O)C(C)(C)C)c1	-24%	4.3	6	4	-20%	-20
Cc1ccc(NC(=O)CN2CCOCC2)c(Br)c1	0%	1.7	2	7	-63%[inhibitor]	-3
Clc1cccc(-c2nc(NCc3cccnc3)c3ccccc3n2)c1	-17%	-0.9	-8	-8	20%	-11
Cc1cccc(NC(=S)NCc2ccco2)n1	12%	0.1	-9	-4	-5%[15.4 µM]	-4
Cc1nc2cc(C)c(C)cc2s1	-3%	-4.4	1	0	-3%[15.4 µM]	-20
COc1ccc(/C=C(/NC(=O)c2cccs2)C(=O)N2CCOCC2)cc1OC	-4%	-1.2	5	1	?	?
CC1C(c2ccccc2)=Nn2c(=O)n(-c3ccccc3)c(=O)n21 (stereo not drawn)	nt	-5.7	-4	2	?	-18
C=CCn1c(NCCOC)nc2c1c(=O)n(C)c(=O)n2C	4%	0.6	0	2	24%	8
NC(=O)c1c(NC(=O)COC(=O)CSc2nnc(-c3ccc(Cl)cc3)o2)sc2c1CCC2	-26%	-3.1	-4	-2	22%	-8
CC(=O)c1cccc(-c2ccnc3c2CC(C(=O)Nc2cccc(OC(F)(F)F)c2)O3)c1 (stereo not drawn)	nt	0.9	0	1	nt	-10
O=C(c1ccc2c(=O)n(Cc3ccc4c(c3)OCO4)c(=O)[nH]c2c1)N1CCN(c2ccccc2)CC1	5%	4.3	3	4	15%	-4
C=CCN=C1SCC(=O)N1S(=O)(=O)c1ccc(C)cc1	-8%	-1.9	2	-1	27%	4
COc1ccccc1C(=O)N/N=C/c1ccc2c(c1)OCO2	0%	-0.2	2	-1	-36%[inhibitor]	-2
COc1ccc(Cl)cc1NC(=O)COC(=O)CCNC(C)=O	8%	-5.1	53	41	-5%	-23
CCOc1ccccc1NC(=O)CCNS(=O)(=O)c1ccccc1	10%	2.2	3	4	-49%[inhibitor]	-3
Oc1ccc2cccnc2c1	9%	-1.5	3	13	10%	4
O=C(CN1CCN(S(=O)(=O)c2ccccc2)CC1)Nc1ccc(N2CCOCC2)cc1	5%	3.3	0	7	30%	3
Cc1cc(C(=O)COC(=O)c2cccnc2Cl)c(C)n1CC1CCCO1 (stereo not drawn)	-26%	10	-13	-3	-53%[inhibitor]	-2
CSc1ncccc1C(=O)OCC(=O)NC(=O)NCCC(C)C	-3%	-2.7	7	1	-24%	10
CCN(CC)C(=O)CSc1nc(Cc2ccccc2)nc2ccccc12	-16%	1.7	4	1	10%	2
CCn1cc(C(=O)NCC2CCCO2)c2cc(OC)c(OC)cc2c1=O (stereo not drawn)	0%	-0.9	0	10	?	3
CCCCOc1ccc(C(=O)Nc2ccc3c(c2)OCO3)cc1	1%	2.4	4	nt	0%	-11
Cc1cccc(Cn2c(Cc3ccccc3)nc3ccccc32)c1	-25%	-2.1	1	9	-34%[inhibitor]	-9
Cc1noc(NS(=O)(=O)c2ccc(N/C=C/C(=O)c3ccc(F)cc3)cc2)c1C	-16%	3.8	-21	nt	?	0
CCCCN1C(=O)CC(C(=O)O)C1c1ccc(OC)cc1 (stereo not drawn)	5%	-5.8	0	-1	-38%	-22
Cc1cccc(NC(=O)c2ccc(-n3cccn3)c([N+](=O)[O-])c2)c1	-8%	-2.9	-1	-2	-44%	-31
Cc1cc(C)nc(N/N=C2/CCSc3ccc(F)cc32)n1	-12%	-5.2	-4	-11	-1%[15.4 µM]	-8
COc1ccc(CN2CCNC(=O)C2CC(=O)N(C)Cc2nonc2C)c(F)c1 (stereo not drawn)	4%	-3.3	2	9	-4%	2
COc1ccc(C2=NOC(C(=O)NCc3cccs3)C2)cc1OC (stereo not drawn)	16%	1.6	0	5	?	14

Next entries
smiles	gsp antag	D2 ag	Six1-Eya2 inh	CtBP-E1A blk	gsp agonist	D2 PAM
COc1ccccc1N1CCN(C(=O)c2cc(=O)c3cc(C)ccc3o2)CC1	3%	2.0	-5	nt	-7%	-6
Cc1ccc(C2Cc3cc(O)c(O)cc3CN2)cc1 (stereo not drawn)	-1%	?	1	0	-6%[15.4 µM]	-13
CCn1cc(C(=O)NCCC2=CCCCC2)c(=O)c2cc(S(=O)(=O)N(C)C)ccc21	-20%	0.0	3	6	-25%	1
CCOC(=O)Cn1c(=O)cc(C)c2cccc(C)c21	-9%	-2.3	24	36	3%	1
COc1ccc(CNC(=O)CC[C@H]2O[C@@H](n3ccc(=O)[nH]c3=O)[C@H](O)[C@@H]2O)cc1	nt	-1.3	1	7	nt	2
Cc1ccc(SCC(=O)NN2C(=O)c3ccccc3C2=O)cc1	7%	-3.1	5	0	-8%[15.4 µM]	-7
CCCCCc1ccc(-c2cn(Cc3ccc(C)cc3)nn2)cc1	5%	1.6	3	nt	10%	-11
CCOC(=O)C1CCCN(Cc2sccc2C)C1 (stereo not drawn)	4%	-1.5	-1	-13	12%	-17
O=C(CSCc1ccccc1Cl)N1CCN(c2ccccn2)CC1	-4%	0.6	-2	-6	-46%	-1
COC(=O)[C@H](CC(C)C)NC(=O)Nc1ccccc1F	7%	-2.0	3	9	18%	-3
N#Cc1nc(-c2ccccc2F)oc1N1CCCC1	13%	-1.0	-2	4	14%	-4
Cc1ccccc1NC(=O)CON=C(N)c1ccccc1	11%	-5.0	7	1	-15%	-2
CC(C)c1ccc(OCC(=O)Nc2cccc(C(=O)Nc3ccccc3C(=O)O)c2)cc1	-7%	-6.5	-16	-11	0%[15.4 µM]	1
CCN(CC)c1ccc(C(=S)NC2CCCCC2)cc1	-16%	0.6	?	-11	-2%[15.4 µM]	-34
NC(=O)C1CCN(C(=O)c2ccc(Cl)c(S(=O)(=O)N3CCc4ccccc43)c2)CC1	nt	-2.9	4	5	-100%[inhibitor]	-12

Structural class: the entries above with bromine (two)
smiles	gsp antag	D2 ag	Six1-Eya2 inh	CtBP-E1A blk	gsp agonist	D2 PAM
CC(C)(C)c1ccc(C(=O)N2CCN(S(=O)(=O)c3ccc(Br)s3)CC2)cc1	-25%	-1.1	-1	nt	-11%	0
Cc1ccc(NC(=O)CN2CCOCC2)c(Br)c1	0%	1.7	2	7	-63%[inhibitor]	-3
